Compound activity from PubChem.
Mtb growth: M. tuberculosis H37Rv growth inhibitors, H37Rv strain (AID 1626); M. tuberculosis H37Rv growth inhibition; higher % means a stronger effect; inhibition, % at 10 µM, or IC50 in µM where a hit was titrated; 0.95% of 220,000 active;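 active means confirmed in a dose series; inconclusive means inhibition above 80% but not taken into the dose series; inactive means below 80% or under 30% at every dose of the series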;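 further: bacteria incubated seven days before Alamar blue readout; 0% = bacteria only wells and 100% = bacteria with antibiotic wells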
RecA intein inh: Mtb RecA intein splicing inhibition; inhibition, %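 (about 9 µM by stock and volumes)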; P9WHJ3; cell-free RecA intein splicing, fluorescence; AID 2221; 0.75% of 290,000 active; in the data active means inhibition above about 30%; inconclusive means no clear call, values can overlap the other calls;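 further: 0% = vehicle wells and 100% = reference inhibitor control wells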
Target sequence (P9WHJ3 whole entry, looked up): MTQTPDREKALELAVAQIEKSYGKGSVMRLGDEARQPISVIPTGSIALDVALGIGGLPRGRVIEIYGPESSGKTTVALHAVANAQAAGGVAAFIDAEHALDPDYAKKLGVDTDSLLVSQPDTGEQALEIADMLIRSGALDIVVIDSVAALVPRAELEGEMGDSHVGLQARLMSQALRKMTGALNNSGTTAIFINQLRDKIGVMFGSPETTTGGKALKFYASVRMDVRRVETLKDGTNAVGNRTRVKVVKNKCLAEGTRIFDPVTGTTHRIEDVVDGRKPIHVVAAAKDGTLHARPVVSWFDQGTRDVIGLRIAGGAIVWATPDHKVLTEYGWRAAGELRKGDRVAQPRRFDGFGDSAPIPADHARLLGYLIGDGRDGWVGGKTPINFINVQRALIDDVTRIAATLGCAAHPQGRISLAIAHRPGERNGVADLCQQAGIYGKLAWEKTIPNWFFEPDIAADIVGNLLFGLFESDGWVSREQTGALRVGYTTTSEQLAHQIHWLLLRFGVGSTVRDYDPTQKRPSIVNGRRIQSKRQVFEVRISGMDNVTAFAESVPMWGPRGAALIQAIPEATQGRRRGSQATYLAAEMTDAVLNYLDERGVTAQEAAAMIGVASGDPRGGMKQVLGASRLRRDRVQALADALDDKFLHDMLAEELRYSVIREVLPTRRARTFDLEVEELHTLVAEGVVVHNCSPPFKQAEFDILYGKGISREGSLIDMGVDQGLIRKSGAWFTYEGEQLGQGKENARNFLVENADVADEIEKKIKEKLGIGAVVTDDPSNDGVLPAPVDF
Mtb bLac sens: beta-lactam sensitization of Mtb H37Rv; M. tuberculosis H37Rv growth with meropenem, percent inhibition; hits of this screen are not shown here; AID 434955; inhibition, % at 25 µM; 0.27% of 330,000 active;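 active means about 74% or more and at least 40 points above the plate without the antibiotic, then above 30% in a dose series; inconclusive means first-round hits that could not be retested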;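 further: growth measured after seven days incubation then overnight dye step; 0% = bacteria only wells and 100% = bacteria with antibiotic; twin plates without the antibiotic show which effects depend on it; some results filed as inactive read as strong as hits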
Arbovirus inh: arbovirus infection inhibition; arbovirus infection cell-based antiviral screen; inhibition, % at 10 µM; 0.37% of 200,000 active;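 active means inhibition from about 30%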;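 further: bluetongue infection of BSR cells; cell survival read as ATP light after 72 h; 0% = infected wells without compound and 100% = uninfected wells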
YopH inh: inhibitors of Yersinia enterocolitica YopH tyrosine phosphatase; fluorescence Ex485/Em525; inhibition, %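 (about 10 µM by stock and volumes)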; 0.16% of 140,000 active; AID 898;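 active means inhibition of 50% or more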;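 further: controls were vehicle for no effect and minimum signal wells for full effect; inactives centre near -20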
Arbovirus inh repeat: recorded beside Arbovirus inh, whose call it bears; inhibition, %; measured here: 10K subset replicate screen; many hits read low in the repeat;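 first of two repeat runs on a subset; 0% = infected and 100% = uninfected wells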
Active calls of the source: *; ? = inconclusive; nt = no result given. An excerpt; rates above refer to the full screens.

SMILES	Mtb growth	RecA intein inh	Mtb bLac sens	Arbovirus inh	YopH inh	others
O=C(COC(=O)c1cccnc1)Nc1ccccc1	0.9%	0.3	-0.7	0.6	-9.3
O=C1NC(=O)N(c2ccccc2)C(=O)/C1=C/c1coc2ccc(O)cc2c1=O	0.9%	-6.1	-3.4	nt	nt
CC(C)(C)OC(=O)N1CCCC1C(=O)N1CCc2ccccc21 (configuration not stated)	-4.0%	-0.4	-10.0	0.5	-19.9
COc1ccc(/C=N/NC(=O)CNC(=O)c2ccc3c(c2)OCCO3)c(C(=O)O)c1OC	nt	-2.7	-6.4	nt	nt
Cc1ccc(N2C(=O)NC(NC(=O)C(C)(C)C)(C(F)(F)F)C2=O)cc1C (configuration not stated)	4.5%	5.3	6.1	11.6	-26.4
O=C1[C@H]2[C@H](C=CC[C@H]2C(=O)N2CCOCC2)CCN1Cc1ccc(Cl)c(Cl)c1	-1.3%	3.0	-0.5	nt	nt
Cc1ncc([N+](=O)[O-])n1CC(=O)NC(C)(C)C	-1.7%	-3.6	-7.3	-5.5	-30.5
CSc1cccc(NC(=O)C2CCCN(c3ncnc4c3nc3n4CCCCC3)C2)c1 (configuration not stated)	nt	-1.7	97.7	nt	nt
O=C(N/N=C/c1ccco1)c1cc(-c2cccs2)[nH]n1	6.7%	4.0	53.8	-4.6	-24.3
O=C(Nc1nc(N2C(=O)c3ccccc3C2=O)n(-c2ccccc2)n1)c1ccc(Cl)cc1	-7.1%	2.9	1.5	-3.3	-39.8

The closing four records of the section before come first, to join the parts.
SMILES	Mtb growth	RecA intein inh	Mtb bLac sens	Arbovirus inh	YopH inh	others
Cc1ncc([N+](=O)[O-])n1CC(=O)NC(C)(C)C	-1.7%	-3.6	-7.3	-5.5	-30.5
CSc1cccc(NC(=O)C2CCCN(c3ncnc4c3nc3n4CCCCC3)C2)c1 (configuration not stated)	nt	-1.7	97.7	nt	nt
O=C(N/N=C/c1ccco1)c1cc(-c2cccs2)[nH]n1	6.7%	4.0	53.8	-4.6	-24.3
O=C(Nc1nc(N2C(=O)c3ccccc3C2=O)n(-c2ccccc2)n1)c1ccc(Cl)cc1	-7.1%	2.9	1.5	-3.3	-39.8
CCCCc1ccc(NC(=O)CN(C)CC(=O)Nc2ccccc2Cl)cc1	nt	5.3	99.0	nt	nt
Cc1ccc(Nc2nc(N3CCOCC3)nc(N3CCOCC3)n2)cc1	1.4%	-4.5	5.9	27.5	-33.4	Arbovirus inh repeat=1.4
Cc1ccc(C2N(c3cccc(Cl)c3)C(=O)C3CCCN32)o1 (configuration not stated)	3.5%	0.8	6.5	5.0	-48.8
Cc1c(CC(=O)NCCCCCC(=O)O)c(=O)oc2cc3occ(-c4ccccc4)c3cc12	nt	-0.5	2.0	nt	nt
CC12OC1C1(O)CCCC1=CC2=O (configuration not stated)	nt	-1.6	-3.6	nt	nt
O=C1OCCC1Sc1nc2ccccc2n1-c1ccccc1 (configuration not stated)	0.5%	1.0	4.2	-4.4	-43.3
CCN(CC(=O)Nc1ccccc1OC)C(=O)C1CC2C=CC1C2 (configuration not stated)	-1.7%	1.4	-24.0	1.8	-34.0
CC(=O)c1ccc(N2CCN(C(=O)CCC(=O)Nc3ccc4nc(N5CCN(C)CC5)cc(C)c4c3)CC2)cc1	nt	-0.3	-1.8	nt	nt
Cc1cc(S(=O)(=O)NCc2ccncc2)c(C)cc1Br	nt	2.4	2.2	nt	nt
Cc1nnsc1SCCNC(=O)c1c(F)cccc1F	-5.4%	0.5	-0.6	-5.1	-28.7
Cc1ccc(Nc2nnc(C)c3ccccc23)c(C)c1	nt	1.7	-6.2	nt	nt
CCOC(=O)/C=C1\SCC(=O)N1CC(=O)NC(C)c1ccccc1 (configuration not stated)	-4.1%	-0.9	-3.3	2.6	-17.9
O=C(Nc1ccc2c(c1)OCO2)c1ccc(S(=O)(=O)N2CCCC2)cc1	-0.3%	-4.1	-3.2	-17.4	nt
CC(=O)Nc1ccc(NC(=O)CSC2=NS(=O)(=O)c3cc(F)ccc3N2)cc1	nt	-2.5	-5.8	nt	nt
CC(C)CN1CCN(Cc2cccn2-c2ccccn2)CC1CCO (configuration not stated)	-5.5%	0.0	-2.6	-0.1	nt
O=C(CN1CCN(Cc2ccc3c(c2)OCO3)CC1)N1CCc2[nH]c3ccc(F)cc3c2C1	36.4%	-4.9	83.2	-11.3	-4.5
O=C(NCCN1C(=O)S/C(=C\c2ccccc2F)C1=O)C1=COCCO1	nt	0.9	1.8	nt	nt
Cc1ccc(S(=O)(=O)N2CCN(c3ncccn3)CC2)c(C)c1	nt	0.2	3.1	nt	nt
CCOC(=O)c1ccc(NC(=S)NCCCN2CCN(C3CCCCC3)CC2)cc1	36.8%	-0.3	-6.7	-18.1	nt
COc1ccc(C/C(C)=N/NC(=O)c2cc(C)oc2C)cc1	-0.2%	2.2	3.4	1.6	-13.9
Cc1ccc(C)c(N(C(=O)CNC(=O)c2ccco2)C(C(=O)NCC2CCCO2)c2ccccc2)c1 (configuration not stated)	nt	0.1	-8.2	nt	nt
CN(C)c1ccc(C(C(=O)NC2CCCCC2)N(Cc2ccco2)C(=O)c2snc(C(N)=O)c2N)cc1 (configuration not stated)	nt	4.4	6.1	nt	nt
COc1ccc(/C=N/Nc2nc3ccccc3[nH]2)c(OC)c1OC	-2.9%	-3.1	3.2	nt	nt
CC1CCN(Cc2c(C(=O)N/N=C/c3cccc(C(F)(F)F)c3)nnn2-c2nonc2N)CC1	nt	-0.6	27.5	nt	nt
CC1CN(C(=O)COC(=O)c2ccc(S(=O)(=O)N(C)C)cc2)CC(C)O1 (configuration not stated)	nt	-17.8	49.3	nt	nt
COCCn1c(SCC(=O)NCCc2ccccc2)nc2c([nH]c3ccccc32)c1=O	nt	-0.8	-1.8	nt	nt
O=C(Nc1nncs1)C12CC3CC(CC(Cl)(C3)C1)C2	nt	1.3	-4.3	nt	nt
Cc1c(C)c2c(OCC(=O)N[C@@H](CC(C)C)C(=O)O)cc3c(c2oc1=O)CCC(C)(C)O3	nt	-2.1	2.4	nt	nt
CCOC(=O)Cn1cnc2c(nnn2-c2ccc(OC)cc2)c1=O	-3.7%	6.0	-4.8	7.4	-47.7
O=C(COC(=O)c1ccccn1)NNC(=O)c1ccc([N+](=O)[O-])cc1	nt	0.8	23.0	nt	nt
CC(NC(=O)CCC(=O)NCc1ccc(F)cc1)c1ccccc1 (configuration not stated)	nt	1.0	-2.7	nt	nt
Cn1cc(C(=O)C(=O)N2CCc3ccccc32)c2ccccc21	nt	-0.3	-14.9	nt	nt
O=C(O)CSc1nnc(CNc2ccccc2Cl)n1-c1ccccc1	-3.2%	0.2	-1.9	7.2	-46.8
CCCCCn1nc(C)c2c(C)cc(=O)[nH]c21	-1.3%	4.5	-5.8	9.4	-28.9
C/C(=N\OC(=O)c1c(-c2ccccc2Cl)noc1C)c1ccncc1	-2.2%	1.7	-1.8	0.0	nt
CC1(C)CC(=O)C=C(NCCN2CCN(C(=S)NC3CCCCC3)CC2)C1	-0.8%	-1.3	7.5	nt	nt
CCCc1nc2ccccc2c(=O)n1CC(=O)c1ccc(OC)cc1	nt	-1.0	-1.2	nt	nt
CCOc1ccccc1NC(=O)CCNC(=O)Cn1ccc2ccccc2c1=O	nt	0.3	-2.1	nt	nt
Cc1ccccc1N=C(NO)c1cccnc1	nt	-5.6	2.6	nt	nt
CN1CCc2c(sc(NC(=O)c3ccc(S(=O)(=O)N4CCOCC4)cc3)c2C(N)=O)C1	-11.3%	-4.3	-4.4	2.8	-10.4	Arbovirus inh repeat=0.4
CCc1cccc(NC(=O)C2CCCC2)c1	-2.8%	-2.0	26.4	-5.1	9.1
O=[N+]([O-])c1cccc(-c2nnn(C34CC5CC(CC(C5)C3)C4)n2)c1	0.1%	3.9	-0.5	7.7	-23.0
COc1ccc(OC)c(NC2=C(Cl)C(=O)N(Cc3ccccc3)C2=O)c1	2.6%	4.3	3.5	0.3	nt
CC(C)Cc1cc(C(=O)N2CCN(c3ccc(F)cc3)CC2)no1	-7.8%	1.9	-8.2	-15.4	-34.1
CN(Cc1ccccc1)CC(O)COc1ccc(CNCCc2cccnc2)cc1 (configuration not stated)	13.2%	-2.5	-2.1	-12.7	nt
Cc1cc(C)n(CCOc2ccc(Cl)cc2Cl)n1	-4.8%	-0.2	2.5	-0.5	-37.2
CCn1c(CNC(=O)c2cccc(C)c2)nnc1SCC(=O)N1CCOCC1	nt	0.0	2.7	nt	nt
COc1cc(C)c(Cl)c(C)c1S(=O)(=O)NCc1ccc2c(c1)OCO2	3.4%	1.2	0.5	4.3	-11.7
CCOC(=O)/C=C1\NC(=O)C(C)S1 (configuration not stated)	-2.9%	2.7	0.5	0.7	-23.5
Cc1ccccc1NC(=S)NC(=O)c1cncc(Br)c1	-1.6%	1.1	-5.8	-1.2	-33.3
Later entries:
SMILES	Mtb growth	RecA intein inh	Mtb bLac sens	Arbovirus inh	YopH inh	others
COCCn1c(=O)sc2ccccc2c1=O	-1.0%	-0.5	-9.2	-1.7	nt
COc1ccc(N2CCN(C(=O)COC(=O)CNC(=O)c3ccc(C)cc3)CC2)cc1	nt	-3.2	-11.6	nt	nt
COc1ccc2ccccc2c1CNC(=O)CC1C(=O)NCCN1CC(C)(C)C (configuration not stated)	0.1%	4.1	-16.8	nt	nt
COc1ccc(NC(=S)NC(=O)/C=C/c2ccccc2)cc1	nt	-1.0	13.7	nt	nt
COc1cccc(/C=N/NC(=O)CCn2c3ccccc3c3ccccc32)c1	-0.5%	1.6	-1.6	-1.8	-9.8
CCn1ncc(C(=O)Nc2cccc(Cl)c2)c1C	1.7%	1.8	-0.1	5.8	-39.0
CCOCCCN(C)C1CCN(C(=O)c2oc3ccccc3c2NC(=O)c2ccc([N+](=O)[O-])cc2)CC1	nt	-3.7	7.5	nt	nt
COc1ccc(OC)c(S(=O)(=O)N2C(C)CCCC2C)c1 (configuration not stated)	55.4%	-1.6	-5.1	2.3	-32.1
Cn1cc(/C=C/c2nc3ccccc3c(=O)n2-c2cccc([N+](=O)[O-])c2)c2ccccc21	6.8%	0.0	-2.0	1.4	-29.1
CCN(CC)Cc1ccc(NC(=O)c2sc3cc(Cl)ccc3c2Cl)cc1	?	1.5	93.5	nt	nt
COc1cccc(-c2noc(CCC(=O)Nc3cccnc3)n2)c1	-0.9%	0.0	-6.0	-1.5	-28.6
O=C(CC1S/C(=N/N=C/c2cccs2)NC1=O)Nc1ccccc1F (configuration not stated)	4.1%	-2.3	-0.1	-1.3	nt
Cc1cccc(OCC(=O)Nc2ccncc2)c1C	nt	-3.8	-4.1	nt	nt
CC(=O)Nc1ccc(S(=O)(=O)Nc2nccc(C)n2)cc1	nt	0.7	0.6	nt	nt
COC(=O)NC(=S)Nc1ccc(Oc2ccc(Cl)cc2)c(Cl)c1	5.7%	2.4	-5.1	-24.8	-16.6
COc1ccc(N2CCN(C(=O)c3ccc(-n4nc(C)cc4C)cc3)CC2)cc1	-4.2%	0.1	-10.9	-0.8	-25.2
CC(Oc1cccc(Cl)c1)c1ccnc2nc(/N=C/N(C)C)nn12 (configuration not stated)	1.4%	0.5	-1.2	1.0	nt
O=C(CN(Cc1ccccc1)C(=O)CCC(=O)Nc1ccccn1)NCCc1ccccc1	nt	0.8	-4.8	nt	nt
CC1c2[nH]c3ccccc3c2C[C@H]2C(=O)N(CCCN(C)C)CC(=O)N12 (some centres not stated)	nt	-1.0	?	nt	nt
COc1cc(/C=N/O)ccc1OCc1ccc([N+](=O)[O-])cc1	12.3%	0.8	1.2	-4.4	-24.8
c1ccc(-c2noc(C3CCCCC3)n2)nc1	-0.8%	2.5	-6.5	1.7	-34.1
COc1ccc(C=C2c3ccccc3C(=O)c3ccccc32)c(OC)c1	15.7%	nt	87.1	nt	nt
Cc1ccc(-c2nnn(CC(=O)N(c3ccc4c(c3)OCCO4)C(C(=O)NCC3CCCO3)c3ccc(F)cc3)n2)o1 (configuration not stated)	-6.5%	nt	-5.0	12.1	nt
CC(=C\c1ccccc1)/C=C1/SC(=S)N(C(C(=O)O)C(C)C)C1=O (configuration not stated)	2.0%	13.2	nt	21.2	nt
CCc1ccccc1N(C(=O)CNC(=O)c1ccco1)C(C(=O)NC1CCCC1)c1cccnc1 (configuration not stated)	nt	-2.8	-2.1	nt	nt
COc1cc(C2=NOC(C(=O)N3CCN(c4ccc(F)cc4)CC3)C2)cc(OC)c1OC (configuration not stated)	-6.5%	7.8	7.7	6.6	-12.1

Three compounds already listed, sorted by molecular weight, rising.
SMILES	Mtb growth	RecA intein inh	Mtb bLac sens	Arbovirus inh	YopH inh	others
CCOC(=O)/C=C1\SCC(=O)N1CC(=O)NC(C)c1ccccc1 (configuration not stated)	-4.1%	-0.9	-3.3	2.6	-17.9
COc1ccc(N2CCN(C(=O)c3ccc(-n4nc(C)cc4C)cc3)CC2)cc1	-4.2%	0.1	-10.9	-0.8	-25.2
COc1cc(C2=NOC(C(=O)N3CCN(c4ccc(F)cc4)CC3)C2)cc(OC)c1OC (configuration not stated)	-6.5%	7.8	7.7	6.6	-12.1
